# From PubChem BioAssay
# CBX7 AlphaScr – CBX7 inhibition, primary AlphaScreen; O95931; AlphaScreen His6-CBX7 / biotin-H3K27me3 peptide binding; stronger effect = lower value; normalised signal (fraction of DMSO) (concentration not given with the values); AID 1224903; hit rate 1.1% among 66,000; in the data active = normalised signal below about 0.5;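 note: 100 nL library stock added to about 20 µL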
# Target sequence (O95931 whole entry, looked up): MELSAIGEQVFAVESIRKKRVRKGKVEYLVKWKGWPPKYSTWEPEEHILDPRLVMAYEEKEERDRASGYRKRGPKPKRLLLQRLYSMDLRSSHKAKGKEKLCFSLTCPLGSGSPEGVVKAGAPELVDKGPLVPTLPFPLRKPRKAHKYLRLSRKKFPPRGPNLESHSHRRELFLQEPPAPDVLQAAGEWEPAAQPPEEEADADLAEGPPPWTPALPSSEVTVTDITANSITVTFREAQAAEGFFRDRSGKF
# CBX7 AlphaScr z-score – also measured in CBX7 AlphaScr; calls as there; z-score; measured here: z-score of CBX7 signal; some inactives read as strong as hits; reference of the scale not given here;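 same signal on another scale; lower means less binding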
# An asterisk follows results filed as active; & = joins results of further samples.
SMILES	CBX7 AlphaScr z-score	CBX7 AlphaScr
COc1ccc(CN2C(=O)c3ccccc3C2C(=O)NCCCN2C(C)CCCC2C)c(OC)c1 (configuration not stated)	2	1.1
CCc1ccc(-c2nc(C(=O)NCCc3ccc(C)cc3)c(C)o2)cc1	-1.6	0.91
Cc1ccc(CC(=O)Nc2ccc3nc(N4CCCCC4)cc(C)c3c2)cc1	0.76	1
CCCCN(CC)CCNC(=O)c1cc(Nc2ccc(OC)c(OC)c2)nc2ccccc12	-3.6	0.7
Cc1ccc(-c2nc(CS(=O)(=O)CC(=O)NCC3CCCO3)c(C)o2)cc1 (configuration not stated)	0.073	1
O=C(NC1CCCCC1)c1cc(-c2ccc(O)cc2)on1	0.78	1
Cc1ccc(CN2CCN(CC(=O)NCc3ccc(F)cc3)C2=O)cc1	-0.22	0.99
CC(C)CCNC(=O)c1ccc2c(c1)N(Cc1ccccc1F)C(=O)c1ccccc1S2	-1.5	0.97
Cc1ccc2c(c1)N(CCC(=O)NCCCN1CCOCC1)C(=O)CO2	1.1	1
Cc1ccsc1CCNc1ccc2nnc(-c3ccccc3)n2n1	-2.1	0.84
Cc1ccc(-c2cc(C(F)(F)F)n3ncc(C(=O)Nc4cccc(C)c4C)c3n2)cc1	1.1	1.1
CCN1CCN(C(=O)c2cn(CC(C)C)c(=O)c3cc(OC)c(OC)cc23)CC1	0.21	1
CCOC(=O)CN1C(=O)CSc2ccc(S(=O)(=O)N(CC)CC)cc21	1.3	1.1
CCOc1ccc(C(=O)NCC2(c3ccccc3)CCOCC2)cc1	2.6	1.1
COc1cccc(CNC(=O)C2CCN(S(=O)(=O)c3cccnc3)CC2)c1	-0.29	0.99
Clc1ccc(OCc2cn3ccccc3n2)cc1	-0.52	0.87
O=C(NC1CCCC1)c1cc2sccc2n1Cc1ccc(F)cc1	0.11	1
Cc1ccc(OCc2nc(-c3cccc(C)c3)no2)cc1	0.19	1
CCc1ccccc1Nc1cc(C(=O)NCc2ccc(OC)cc2)c2ccccc2n1	5.2	1.3
Cc1onc(-c2ccccc2)c1C(=O)Nc1ccc(OC(C)C)cc1	-0.021	1
CCN1C(=O)c2ccccc2S(=O)(=O)c2ccc(C(=O)NCC3CCCO3)cc21 (configuration not stated)	2.2	1.1
COc1ccc(NC(=O)c2cn(-c3ccc(C)c(C)c3)c(=O)c3ccccc23)cc1Cl	-0.85	0.97
CCOC(=O)c1cnc2cc(C(F)(F)F)ccc2c1N1CCCC1	-1.6	0.91
CC1CCCC(C)N1C(=O)c1cc2n(n1)C(C(F)(F)F)CC(c1ccc(Cl)c(Cl)c1)N2 (configuration not stated)	0.83	1.1
Cc1cc(N2CCCCC2)nc2ccc(NC(=O)c3cccc(C(F)(F)F)c3)cc12	-1.6	0.94
CCOc1ccccc1NC(=O)c1c(NC(=O)Cc2ccc(OC)cc2)sc2c1CCCCC2	0.46	1
CN(CC(=O)N1CCN(c2ccc(Cl)cc2)CC1)S(=O)(=O)c1cnc[nH]1	0.68	1.1
Cc1cc(C)cc(OCC(=O)N(Cc2ccc(Cl)cc2)C2CCS(=O)(=O)C2)c1 (configuration not stated)	-0.077	0.92
Cc1cc(NC(=O)C2CCCN(S(=O)(=O)c3c(C)noc3C)C2)no1 (configuration not stated)	1.6	1.1
Cc1nc2ncnn2c(C)c1Cc1c(F)cccc1Cl	1.2	1

# Reprinted from the part before: 2 compounds, followed by the next part.
SMILES	CBX7 AlphaScr z-score	CBX7 AlphaScr
Cc1cc(NC(=O)C2CCCN(S(=O)(=O)c3c(C)noc3C)C2)no1 (configuration not stated)	1.6	1.1
Cc1nc2ncnn2c(C)c1Cc1c(F)cccc1Cl	1.2	1
O=C(Nc1ccc(F)cc1)Nc1nnc(N2CCCCCC2)s1	-1.2	0.7
COC(=O)c1ccc(C2C(Oc3ccc(OC)cc3)C(=O)N2CCc2ccc(OC)c(OC)c2)cc1 (configuration not stated)	0.00095	1
Cc1noc(C(=O)NCc2ccc(F)cc2)c1Cl	2.1	1.1
Cc1ccc(-c2nnc(N3CCOCC3)c3ccccc23)cc1S(N)(=O)=O	0.43	1.1
O=C(Nc1nnc(-c2ccccc2)o1)Nc1ccccc1Cl	-2.3	0.92
CC(C)c1cc(C(=O)Nc2ccc(C#N)cc2)no1	-1.4	0.87
CCn1c(=O)cc(OCC(=O)Nc2ccc(F)cc2Cl)c2ccccc21	-3.1	0.81
CCOc1ccc(-n2c(Cc3cc(=O)[nH]c(=O)[nH]3)nnc2SCC(=O)c2ccc(Cl)cc2)cc1	-0.94	0.96
O=C(CSCc1cnn(-c2ccccc2)c1-n1cccc1)NCCc1ccccc1	-0.52	0.99
Cc1oc(-c2cccc(Cl)c2)nc1CS(=O)(=O)CC(=O)NCc1ccc2c(c1)OCO2	0.56	1
CCCSCCCNC(=O)c1ccc2nc(N3CCOCC3)sc2c1	0.99	1.1
Cc1ccc(C)c(OCc2nc(-c3ccc(Cl)cc3)no2)c1	11	2.1
COc1ccc(CN2CCN(Cc3ccccc3Cl)CC2)c(OC)c1OC	0.16	1
Fc1ccc(-c2csc(Nc3cccc4ccccc34)n2)cc1	-4.8&-7.3	0.7&0.73
Cc1cc(C)cc(-n2ccnc2SCC(=O)NC2CCCC2)c1	0.19	1
CCOCCCNC(=O)c1ccc2c(c1)N(Cc1cccc(Cl)c1)C(=O)CS2	0.023	1
COc1ccc(CNC(=O)CN2N=C(c3ccccc3)CCC2=O)c(OC)c1	0.16	1
COc1ccc(OC)c(NS(=O)(=O)c2ccc3c(c2)CCN3C(C)=O)c1	4	1.1
CC(=O)N1CCc2cc(S(=O)(=O)NC(CC(C)C)C(=O)NCc3ccc(Cl)cc3)ccc21 (configuration not stated)	-0.29	0.99
COc1ccc([N+](=O)[O-])cc1NC(=O)c1c(C)nn(-c2ccccc2)c1Cl	-0.53	0.97
O=C(Cn1ccc2ccccc2c1=O)Nc1ccc(Oc2ccccc2)cc1	0.76	1.1
Cc1sc2ncn(CC(=O)O)c(=O)c2c1S(=O)(=O)N1CCN(c2ncccn2)CC1	0.11	1
CC(C)Oc1ccc(C(=O)Nc2c(C(=O)c3ccc(Br)cc3)oc3ccccc23)cc1	-0.2	0.99
O=C(CN1C(=O)COc2ccc(S(=O)(=O)N3CCOCC3)cc21)NCCCc1ccccc1	0.061	1
COc1cccc(-c2nn(C)c3sc(C(=O)NCCCN4CCCC4=O)cc23)c1	0.35	1
Cc1c(Cl)cccc1NC(=O)c1cc(-c2cccs2)on1	-0.87	0.94
O=C(CC1Oc2ccccc2NC1=O)Nc1cc(C(F)(F)F)ccc1Cl (configuration not stated)	0.31	1.1
O=C(Nc1ccc2nc3n(c(=O)c2c1)CCCCC3)c1ccccc1F	-1.1	0.96
COc1ccc2[nH]c3c(c2c1)CN(CCCC(=O)c1ccc(F)cc1)CC3	-4.3	0.7
COc1ccc(C2=NN(CCC(=O)NCCc3ccccc3)C(=O)CC2)cc1	-0.16	0.99

# Three entries from above, as labelled records:
Cc1cc(C)cc(OCC(=O)N(Cc2ccc(Cl)cc2)C2CCS(=O)(=O)C2)c1 (configuration not stated)
  CBX7 AlphaScr z-score = -0.077	CBX7 AlphaScr = 0.92
CC(C)CCNC(=O)c1ccc2c(c1)N(Cc1ccccc1F)C(=O)c1ccccc1S2
  CBX7 AlphaScr z-score = -1.5	CBX7 AlphaScr = 0.97
O=C(NC1CCCCC1)c1cc(-c2ccc(O)cc2)on1
  CBX7 AlphaScr z-score = 0.78	CBX7 AlphaScr = 1

# (more compounds)
SMILES	CBX7 AlphaScr z-score	CBX7 AlphaScr
Cc1ccc(CN2C(=O)N(c3ccc(F)cc3)C(=O)C2CC(=O)Nc2ccc(F)cc2)cc1 (configuration not stated)	1.9	1
Cc1c(C(=O)NCCN2CCOCC2)oc2ccc(S(=O)(=O)N3CCC(C)CC3)cc12	0.78	1
O=C(CSc1nnc(-c2ccc(Cl)cc2Cl)o1)Nc1ccccc1C(F)(F)F	0.77	1
Cc1csc(NC(=O)Cn2ncc3c2-c2ccccc2OC3)n1	0.96	1.2
CCOC(=O)c1c(C)n(CCNC(C)=O)c2ccc(OC)cc12	-0.58	0.98
Cc1cccc(N2CCN(C(=O)CN3CCN(Cc4ccccc4Cl)C3=O)CC2C)c1 (configuration not stated)	0.24	1
CCCCCn1c(CNC(=O)C(C)(C)C)nc2ccccc21	0.25	1
Cc1ccc(C)c2[nH]c(=O)c(CCNC(=O)c3ccccc3F)cc12	0.17	1.1
CCOc1ccccc1N(C)C(=O)c1nn(-c2ccc(OC)cc2)c(=O)c2ccccc12	-5.4	0.73
COc1ccc(NC(=O)C(NC(=O)c2cnccn2)c2ccccc2)cc1 (configuration not stated)	2	1.2
COc1ccccc1N1CCN(c2nnc(C)c3ccccc23)CC1	0.34	1.2
COc1ccc(N2C(=O)N(c3ccc(Cl)c(Cl)c3)C3CS(=O)(=O)CC32)cc1 (configuration not stated)	0.85	1
CCCN(C(=O)CCc1nc(-c2ccccc2F)no1)c1ccc(OCC)cc1	3.9	1.1
COCCCNC(=O)c1ccc2c(c1)nc(C)n2-c1ccccc1OC	-0.32	0.99
Cc1nc2cc(-c3ccc(Cl)cc3)nn2c(C)c1CCC(=O)NC(C)c1cccs1 (configuration not stated)	-0.41	0.98
CC(=O)NC1C(OCc2ccccc2)OC2COC(c3ccccc3)OC2C1O (configuration not stated)	0.71	1
O=C(NCCCN1CCN(c2ccccc2F)CC1)c1csc2c1CCCCC2	0.024	1
CCOc1ccc(-c2cc(C(=O)NCCCN3CCCCC3CC)c3ccccc3n2)cc1 (configuration not stated)	2.5	1.1
Cc1ccc(-c2csc(NC(=O)COc3ccc(Cl)cc3C)n2)cc1	1.3	1.1
COCCCNC(=O)C1CC(=O)N(CCc2ccc(C)cc2)C1 (configuration not stated)	1.3	1
CCN(CC)CCn1c(=N)n(CC(O)c2ccc(C)cc2)c2ccccc21 (configuration not stated)	0.4	1
CCn1c(C(O)c2cc(OC)c(OC)c(OC)c2)nc2ccccc21 (configuration not stated)	-0.0018	1
COC(=O)c1cccc(C(=O)Nc2ccc(C)cc2Br)n1	2.9	1.1
CN1CCN(CCCNC(=O)Nc2cccc3ccccc23)CC1	2	1.1
Cc1ccc(C(=O)CC2(O)C(=O)Nc3ccc(Cl)cc32)cc1 (configuration not stated)	1.1	1
Cc1ccc2oc(-c3ccc(NS(=O)(=O)c4ccccc4)cc3)nc2c1	-3.5	0.9
CCOC(=O)C1CCN(C(=O)c2cc3c(s2)-c2ccccc2OC3)CC1	2.6	1.1
Cc1nc(N2CCCCC2)c2c(C)c(C(=O)N3CCCCC3C)sc2n1 (configuration not stated)	0.93	1
COc1cccc(-c2nc(CS(=O)(=O)CC(=O)Nc3ccc(C)cc3Cl)c(C)o2)c1	0.16	1
CCN(C(=O)c1cn(CC)c(=O)c2cc(OC)c(OC)cc12)c1cccc(C(F)(F)F)c1	3.9	1.4

# One compound at a time (already shown):
# Cc1csc(NC(=O)Cn2ncc3c2-c2ccccc2OC3)n1 is entered as CBX7 AlphaScr z-score: 0.96; CBX7 AlphaScr: 1.2
# CCOC(=O)c1c(C)n(CCNC(C)=O)c2ccc(OC)cc12 is entered as CBX7 AlphaScr z-score: -0.58; CBX7 AlphaScr: 0.98

# Next part:
SMILES	CBX7 AlphaScr z-score	CBX7 AlphaScr
COc1ccccc1CC(=O)Nc1ccc(-c2noc(-c3ccc(OC)c(OC)c3)n2)cc1	0.16	1
COc1ccc(OC)c2[nH]c(=O)c(CCNC(=O)Cc3cccs3)cc12	-0.24	0.99
COc1cc(OC)cc(C(=O)Nc2c(C(N)=O)oc3ccccc23)c1	0.16	1
CCC(=O)NCc1nc2ccccc2n1CC(C)C	2.3	1.2
CCC1CCCCN1C(=O)CSCc1nc(-c2ccccc2C)oc1C (configuration not stated)	-6.2	0.66
Cc1ccc(NC(=O)c2ccn(C(=O)c3cccc(I)c3)n2)c(C)c1	0.42	1.2
CCOc1cc2c(cc1OCC)C1C(C(=O)Nc3ccc(F)cc3F)c3ccccc3C(=O)N1CC2 (configuration not stated)	0.51	1.1
COCCCNc1cc(C)nc2c(-c3ccc(Cl)cc3)c(C)nn12	2.2	1.3
COc1cc(OC)cc(-c2nnc(NC(=O)c3ccc(S(=O)(=O)N(C)C)cc3)o2)c1	-2.6	0.73
COC(=O)c1cccc(NC(=O)c2ccc3c(c2)C(=O)N(c2ccc(OC)cc2)C3=O)c1	-0.77	0.98
CCC1CCCCN1CCCNC(=O)c1cc2c(-c3ccc(Cl)cc3)nn(C)c2s1 (configuration not stated)	0.52	1.1
CCOc1ccccc1NC(=O)CCc1c(C)nc2cc(-c3cc(OC)cc(OC)c3)nn2c1C	-1.4	0.94
Cn1cc(CC(=O)N2CCN(c3ccc(F)cc3)CC2)c2ccccc21	-0.85	0.93
Cc1nc2nc(SCC(=O)NC3CCCCC3)nn2c(C)c1Cc1ccc(Cl)cc1	-0.97	0.9
CCCC1=Nc2cc(C(=O)NCCc3ccc(S(N)(=O)=O)cc3)ccc2Sc2ccccc21	-4.2	0.92
CCOC(=O)C1CCCN(C(=O)c2c[nH]n3c(=O)c(Cc4cccc(Cl)c4)c(C)nc23)C1 (configuration not stated)	-0.83	0.94
CCCN(CCC)C(=O)c1ccc(CNc2c(NC3CCCC3)c(=O)c2=O)cc1	-0.4	0.83
CC1CCCCN1CCNS(=O)(=O)c1ccc2c(c1)CCN2C(=O)C1CCC1 (configuration not stated)	-0.58	0.98
C=CCNC(=O)c1cnn2c(C(F)(F)F)cc(-c3cccs3)nc12	0.046	1
O=C1CC(c2ccccc2Cl)Cc2nc(NC3CC3)ncc21 (configuration not stated)	3	1.3

# An excerpt (hit frequency here may not be typical).
